From PubChem
VACV E9 pol inh: inhibitors of vaccinia virus processive DNA synthesis (E9 polymerase). in vitro processive DNA synthesis, absorbance read-out; hits give low values; some inactives read as strong as hits. AID 493162. 0.94% of 46,000 active. normalized absorbance, % (concentration not given with the values);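 active = replicate mean up to 90% and picked by the depositor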;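 note: 100% = median of the test wells of a plate; 100 nL library stock went into each well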
* = called active by the depositor. The list is partial; the hit share may differ from the screen's.

SMILES | VACV E9 pol inh
COc1ccc(C(C(=O)Nc2ccc(C(C)C)cc2)N(Cc2ccco2)C(=O)c2cnccn2)cc1 (stereo unspecified) | 98
CCC(C)(C)C(=O)Nc1nnc(C(F)(F)F)s1 | 93
CCc1nn(CC(=O)OC)c(=O)c2cc3sc(C)cc3n12 | 95
Cc1ccc(-c2nn3c(=O)c4ccccc4nc3c3ccccc23)cc1 | 100
CC1=C(C(=O)Nc2ccccc2)C(C2CCCCC2)C(C#N)=C(N)O1 (stereo unspecified) | 101
O=C(NCCSC1CCCCC1)c1ccco1 | 108
c1ccc(CCc2nc3ccccc3[nH]2)cc1 | 100
CCc1ccc(NC(=O)c2ccc3c(c2)OCO3)cc1 | 99
S=c1[nH]nc(-c2ccccc2)n1N=Cc1cccs1 | 94
CCCc1nc2c(o1)OC(N)=C(C#N)C2c1cccc(O)c1 (stereo unspecified) | 101
CCc1nnc(NC(=O)c2ncn[nH]2)s1 | 100
COc1ccc(OCC(=O)Nc2cccnc2)cc1 | 106
CCOC(=O)c1c(NC(=O)COC(=O)c2cn(CC)c3nc(C)ccc3c2=O)sc2c1CCCC2 | 94
CCOC(=O)CCc1c(C)nn(-c2ccc(Cl)nn2)c1C | 96
COc1ccc(C(=O)NCCc2sc(-c3cccc(C)c3)nc2C)cc1 | 95
O=C(/C=C1\Sc2ccccc2NC1=O)NC1CC1 | 85
CC(C)c1ccc(OCc2ccc(C(=O)NCc3ccco3)cc2)cc1 | 100
Cc1ccc(NC(=O)CCN2C(=O)c3ccccc3Sc3ncccc32)c(C)c1 | 95
CCN(CC)c1cccc(OC(=O)c2cccnc2Cl)c1 | 104
CN(CCc1ccccn1)C(=S)Nc1ccc(Cl)cc1Cl | 100
c1ccc(CCNC2=NCCCS2)cc1 | 102
Cn1cnnc1SC1c2cccc3cccc(c23)C1NS(C)(=O)=O (stereo unspecified) | 102
Cc1cccn2cc(CN3CCCc4ccccc43)nc12 | 88
O=C1NC2C=NN(c3ccccc3)C(=O)C2NC1=O (stereo unspecified) | 103
CC(C)(C)NC(=O)CCCN1C(=O)/C(=C/c2ccccc2)SC1=S | 99
CC(C)(C)NCc1ccccc1OCc1cccs1 | 95
CCOC(=O)N1CCC(NC(=O)c2nn(C)c3c2CS(=O)(=O)c2ccccc2-3)CC1 | 104
CCCn1cc(S(=O)(=O)CC(=O)Nc2ccc(C)cc2)c2ccccc21 | 103
CSc1scc2c1C(=O)CC(C)(C)C2 | 95
NC[C@@H]1O[C@H](O[C@@H]2[C@@H](CO)OC(O[C@@H]3[C@@H](O)[C@H](N)C[C@H](N)[C@H]3OC3O[C@H](CO)[C@@H](O)[C@H](O)[C@H]3N)[C@@H]2O)[C@H](N)[C@@H](O)[C@@H]1O (stereo partly specified) | 100
CC1=NN(c2ccc(C)c(C)c2)C(=O)/C1=C\c1ccc(-c2ccc(S(N)(=O)=O)cc2)o1 | 100
O=C(O)CCC(=O)Nc1ccc2ccccc2c1 | 100
COc1ccc(/C=C/C(=O)NC(C)(C)C)cc1 | 100
O=C(COC(=O)c1cc(-c2ccccc2)nc2ccccc12)NCc1ccccc1 | 104
Cc1sc(/N=C/N(C)C)c(C(=O)c2ccc(Cl)cc2)c1C | 98
CCC(C(=O)NCCc1cc2c(C)ccc(C)c2[nH]c1=O)c1ccccc1 (stereo unspecified) | 94
O=C(O)CSc1nnc(-c2ccc(Cl)cc2Cl)n1Cc1ccco1 | 101
CCSc1nnc(Cc2cc(=O)[nH]c(=O)[nH]2)n1-c1cccc(C)c1 | 98
CC(SC1=NCCS1)C(=O)Nc1nnc(-c2ccc(F)cc2)s1 (stereo unspecified) | 101
Cc1ccc2c(c1)sc(=NC(=O)Cc1cccc3ccccc13)n2C | 99
O=c1[nH][nH]c(=S)n1-c1ccccc1C(F)(F)F | 99
CC(C)c1ccc([C@@H]2Nc3ccc(C(=O)O)cc3[C@@H]3C=CC[C@@H]32)cc1 | 23*
CCNC(=S)Nc1sc2c(c1C(=O)OCC)CC(C)(C)OC2 | 100
COC(=O)C(Cc1c[nH]c2ccccc12)NS(=O)(=O)c1ccc(Cl)cc1 (stereo unspecified) | 100
CCc1ccc2nc(N3CCC(C(=O)NCCc4ccccc4)CC3)sc2c1 | 101
CC(C)(C)c1cc(C(c2ccc(O)cc2)N2CCOCC2)cc(C(C)(C)C)c1O (stereo unspecified) | 115
O=C(CSc1ccccc1)NCc1nc(-c2ccccc2)no1 | 107
CCN(CC)CCOC(=O)C(Cc1cccc2ccccc12)CC1CCCO1 (stereo unspecified) | 97
CC1CC(C)CN(C(=O)COC(=O)COc2ccc(Br)cc2)C1 (stereo unspecified) | 105
Cc1c(C(=O)NCCCn2ccnc2)oc2ccccc12 | 107
Nc1ccc(-c2nc3ccccc3n2CCO)cc1 | 105
N#C/C(=C\c1ccc(-c2ccc(F)cc2)o1)c1ccccc1 | 99
CCc1ccccc1NC(=O)CCn1c(=O)sc2ccccc21 | 99
COc1ccc2nc(SCc3cnc(C)nc3N)[nH]c2c1 | 90
CCc1nnc(NC(=O)C2=CCN(S(=O)(=O)c3ccc(F)cc3)CC2)s1 | 102
COc1ccc(CCNC(=O)/C=C/c2ccc(F)cc2)cc1OC | 102
COc1ccc(CNC(=O)CCn2c(=O)c3sccc3n(Cc3cc(C)ccc3C)c2=O)cc1 | 99
CCOC(=O)c1cn(CC(=O)Nc2ccccc2)nn1 | 104
Cn1nnnc1SCC1=C(C(=O)O)N2C(=O)C(NC(=O)C(O)c3ccccc3)C2SC1 (stereo unspecified) | 64*
Cc1ccc(/C(N)=N\O)n1C | 93
Further entries.
SMILES | VACV E9 pol inh
CCC(=O)NCCSc1c(-c2ccc(OC)cc2)[nH]c2ccccc12 | 101
COc1ccc(OC)c(NC(=O)C2C3CC/C=C\CC/C=C/CCC32)c1 (stereo unspecified) | 93
CCc1cc2c(=O)c(-c3csc(C)n3)coc2cc1O | 106
C=C(C)C(=O)Oc1ccc(NC(C)=O)cc1 | 111
Cc1nc2n(CCN3CCOCC3)c3ccccc3n2n1 | 100
CC(C)(C)c1ccc(OCC(=O)Nc2cccc3nsnc23)cc1 | 100
OCCCc1cn(-c2ccccc2)c2ccccc12 | 94
Cc1n[nH]c(C)c1CCc1nc2c3ccccc3nc(NCc3ccccc3)n2n1 | 98
CN1CCN(n2c(-c3ccc(Cl)cc3)csc2=Nc2ccccc2)CC1 | 98
CC1(C)S[C@@H]2C(N3C(=O)[C@@H](c4ccccc4)NC3(C)C)C(=O)N2[C@H]1C(=O)O (stereo partly specified) | 95
COc1cccc(-c2cc(C(F)(F)F)n3ncc(C(=O)NC4CCCC4)c3n2)c1 | 90
O=C(CCCN1C(=O)/C(=C/c2ccccc2)SC1=S)N1CCOCC1 | 97
CCc1cccc(NC(=O)c2cc3cc4cc(OC)ccc4nc3s2)c1 | 107
Cc1ccc(-c2c(C(=O)N(CC(C)C)CC(C)C)oc(=O)c3ccccc23)cc1 | 97
CC1(C)CC(=O)C=C(SCc2c(Cl)cccc2Cl)S1 | 97
COC(=O)c1ccccc1NC(=O)C1CC(c2cccc(Br)c2)=NO1 (stereo unspecified) | 93
CC(CCC(=O)O)C1CC[C@H]2C3CCC4CC(=O)CCC4(C)[C@H]3CC(=O)C12C (stereo partly specified) | 100
O=C1Nc2ncccc2OC1CCO (stereo unspecified) | 108
CC(C)n1c2ccc(Cl)cc2c2nc3ccccc3nc21 | 100
O=C(O)Cc1cn(Cc2ccc(F)cc2)c2ccccc12 | 93
O=C(CCC1CCCCC1)NCCCN1CCOCC1 | 102
O=C1CC(c2ccc(S(=O)(=O)NC3CC3)cc2)CN1 (stereo unspecified) | 99
CC1CC(OCC(O)CN2CCN(c3cccc(Cl)c3)CC2)CC(C)(C)C1 (stereo unspecified) | 98
Cc1ccc(C(OCC(C)(C)C[N+](C)(C)C)c2ccccc2)cc1 (stereo unspecified) | 100
Cc1ccc(S(=O)(=O)NCc2ccc(C(=O)N3CCN(c4ccccc4)CC3)cc2)cc1 | 100
CC(C)c1ccc(S(=O)(=O)Nc2ccc(O)c(Cl)c2)cc1 | 100
O=C(OCC(=O)N1CCc2ccccc21)c1n[nH]c2ccccc12 | 112
O=C(c1ccc(N2C(=O)CCC2=O)cc1)N1CCc2ccccc21 | 101
CCCCC(C(=O)O)N1C(=O)c2ccccc2C1=O (stereo unspecified) | 100
O=C(O)c1cn(Cc2ccc(Cl)cc2)c2ccccc12 | 77
COc1cc(Br)cc(CO)c1O | 108
O=C(CSc1ncnc2c1oc1ccccc12)c1ccccc1 | 99
CC(C)CC1CC(=O)NC(N)=N1 (stereo unspecified) | 93
CC(C)NC(=O)c1cc2c(s1)CCC2 | 101
Cc1[nH]c2ccccc2c1C(C#N)(C#N)C1C(=O)c2ccccc2C1=O | 87
CC(NC(=O)c1ccco1)C(c1cccs1)N1CCN(C)CC1 (stereo unspecified) | 100
O=C1O[C@H]2C[C@@H]3C[C@H]2[C@H]1[C@@H]3C(=O)N(Cc1ccccc1)Cc1ccccc1 | 99
O=C1N=c2ccccc2=C1c1sc(Nc2cccc(C(F)(F)F)c2)nc1O | 100
O=c1c2cc(-c3ccccc3)sc2ncn1-n1cccc1 | 106
Cc1cc(=O)oc2cc(OCC(=O)NCC3CCCCC3)c(Cl)cc12 | 100

Another view of 24 compounds above:
molecule	VACV E9 pol inh
Cc1ccc(-c2c(C(=O)N(CC(C)C)CC(C)C)oc(=O)c3ccccc23)cc1	97
CC1(C)CC(=O)C=C(SCc2c(Cl)cccc2Cl)S1	97
COC(=O)c1ccccc1NC(=O)C1CC(c2cccc(Br)c2)=NO1 (stereo unspecified)	93
CC(CCC(=O)O)C1CC[C@H]2C3CCC4CC(=O)CCC4(C)[C@H]3CC(=O)C12C (stereo partly specified)	100
O=C1Nc2ncccc2OC1CCO (stereo unspecified)	108
CC(C)n1c2ccc(Cl)cc2c2nc3ccccc3nc21	100
O=C(O)Cc1cn(Cc2ccc(F)cc2)c2ccccc12	93
O=C(CCC1CCCCC1)NCCCN1CCOCC1	102
O=C1CC(c2ccc(S(=O)(=O)NC3CC3)cc2)CN1 (stereo unspecified)	99
CC1CC(OCC(O)CN2CCN(c3cccc(Cl)c3)CC2)CC(C)(C)C1 (stereo unspecified)	98
Cc1ccc(C(OCC(C)(C)C[N+](C)(C)C)c2ccccc2)cc1 (stereo unspecified)	100
Cc1ccc(S(=O)(=O)NCc2ccc(C(=O)N3CCN(c4ccccc4)CC3)cc2)cc1	100
CC(C)c1ccc(S(=O)(=O)Nc2ccc(O)c(Cl)c2)cc1	100
O=C(OCC(=O)N1CCc2ccccc21)c1n[nH]c2ccccc12	112
O=C(c1ccc(N2C(=O)CCC2=O)cc1)N1CCc2ccccc21	101
CCCCC(C(=O)O)N1C(=O)c2ccccc2C1=O (stereo unspecified)	100
O=C(O)c1cn(Cc2ccc(Cl)cc2)c2ccccc12	77
COc1cc(Br)cc(CO)c1O	108
O=C(CSc1ncnc2c1oc1ccccc12)c1ccccc1	99
CC(C)CC1CC(=O)NC(N)=N1 (stereo unspecified)	93
CC(C)NC(=O)c1cc2c(s1)CCC2	101
Cc1[nH]c2ccccc2c1C(C#N)(C#N)C1C(=O)c2ccccc2C1=O	87
CC(NC(=O)c1ccco1)C(c1cccs1)N1CCN(C)CC1 (stereo unspecified)	100
O=C1O[C@H]2C[C@@H]3C[C@H]2[C@H]1[C@@H]3C(=O)N(Cc1ccccc1)Cc1ccccc1	99

Back to the main list; the 2 compounds before the break are reprinted first.
SMILES | VACV E9 pol inh
O=c1c2cc(-c3ccccc3)sc2ncn1-n1cccc1 | 106
Cc1cc(=O)oc2cc(OCC(=O)NCC3CCCCC3)c(Cl)cc12 | 100
Cc1ccc(Cn2c(=O)n(Cc3ccccc3)c(=O)c3ccccc32)cc1 | 106
CN(C)CCOC(=O)c1ccc(N2Cc3ccccc3C2=N)cc1 | 96
COCCn1c(SCC(=O)N2CCOCC2)nc2c(c1=O)SC(C)C2 (stereo unspecified) | 102
CCOC(=O)c1oc2ccc(OC)cc2c1CN1CCN(C)CC1 | 90
CC(C)n1c(CNC(=O)c2ccccc2)nc2ccccc21 | 104
Cc1cccc(NC(=O)CSc2ccccn2)c1 | 86
Cc1ccc(C)c(OCc2nc3ccccc3n2C(C)C)c1 | 98
N#Cc1ccc(CSc2ncccn2)cc1 | 100
Cc1ccc(N2C(=O)CC(N3CCSCC3)C2=O)c(C)c1 (stereo unspecified) | 122
COc1cc(C)nc(SCC(N)=O)n1 | 100
COc1ccc(C(=O)NC2=Nc3ccccc3N=C(C)C2c2ccccc2)cc1 (stereo unspecified) | 100
Cc1nc2ccccc2n1-c1ccc(S(N)(=O)=O)cc1 | 91
O=C(Cc1c(F)cccc1Cl)NC(=O)Nc1ccc(F)c(Cl)c1 | 110
O=C(Cn1cnc2ccccc21)N1CCc2ccccc21 | 102
COc1ccc(S(=O)(=O)Nc2cncc(C(=O)Nc3ccc(C(F)(F)F)cc3)c2)cc1 | 102
COc1ccc(C2=CC(=O)OC3(CCCCC3)O2)cc1 | 100
O=C(NC1CCC(NC(=O)c2ccccc2F)CC1)c1ccccc1 (stereo unspecified) | 101
O=C(Nc1nnc(-c2ccccc2)o1)c1nc2ccccc2s1 | 101
C=CCc1c(C)c(C#N)c2nc3ccccc3n2c1NCCc1ccc(OC)c(OC)c1 | 97
COc1cc2nc(N=C(N)N)[nH]c(=O)c2cc1OC | 100
Cc1cc(N2CCCC2)n2c(nc3ccccc32)c1C#N | 100
O=C(O)CNS(=O)(=O)c1ccc(Cl)c(Cl)c1 | 74
CCc1ccc(NC(=O)CCc2ccc(C)o2)cc1 | 103
Nc1ccccc1SC1=CS(=O)(=O)c2ccccc21 | 97
COc1ccc(NC(=O)C2CCCCN2N)cc1OCC(C)C (stereo unspecified) | 98
C=CCC1c2cccc(C(=O)O)c2C(=O)N1c1cccc(OC)c1 (stereo unspecified) | 97
Cc1ccc(C(=O)Cn2c3ccccc3n3ncnc23)cc1 | 97
COc1ccc(NC(=O)CSc2ncnc3c2oc2ccccc23)cc1 | 102
c1ccc(Nc2nc(-c3ccccc3)nc3ccccc23)cc1 | 93
CCN(C(=O)CSc1ncccc1C(=O)OC(C)C)c1cccc(C)c1 | 77
Cc1cc(NC(=O)CSc2nc3nccnc3c(=O)n2Cc2ccccc2)n[nH]1 | 95
CC(=O)Nc1ccc(Cl)c(Cl)c1 | 99
O=c1c(Cc2cc(Cl)cc(Cl)c2O)c(O)nc2n1CCCS2 | 99
O=C(COc1ccccc1)NS(=O)(=O)c1ccccc1 | 103
COc1ccc(-c2cc(N)n(S(=O)(=O)Cc3ccccc3)n2)cc1 | 96
